# KCNQ2 enhance: potentiators of rat KCNQ2 potassium channel; Potassium voltage-gated channel subfamily KQT member 2 (Rattus norvegicus), O88943; CHO-K1 KCNQ2, FluxOR thallium flux fluorescence; hits give high values; B-score at 10 µM; 0.54% of 310,000 active;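 active means fluorescence ratio B-score at least 3 SD of library B-scores, with initial fluorescence B-score within 3 SD, cut at about 5.3 in these data; same plate scores as AID 2156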;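 further: B-score of peak minus minimum over baseline fluorescence ratio after K+ and Tl+ stimulus; positive B-score means potentiation of KCNQ2 with more thallium influx and brighter signal; only the inactives scoring about 0 or higher are listed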
# Target sequence (O88943 whole entry, looked up): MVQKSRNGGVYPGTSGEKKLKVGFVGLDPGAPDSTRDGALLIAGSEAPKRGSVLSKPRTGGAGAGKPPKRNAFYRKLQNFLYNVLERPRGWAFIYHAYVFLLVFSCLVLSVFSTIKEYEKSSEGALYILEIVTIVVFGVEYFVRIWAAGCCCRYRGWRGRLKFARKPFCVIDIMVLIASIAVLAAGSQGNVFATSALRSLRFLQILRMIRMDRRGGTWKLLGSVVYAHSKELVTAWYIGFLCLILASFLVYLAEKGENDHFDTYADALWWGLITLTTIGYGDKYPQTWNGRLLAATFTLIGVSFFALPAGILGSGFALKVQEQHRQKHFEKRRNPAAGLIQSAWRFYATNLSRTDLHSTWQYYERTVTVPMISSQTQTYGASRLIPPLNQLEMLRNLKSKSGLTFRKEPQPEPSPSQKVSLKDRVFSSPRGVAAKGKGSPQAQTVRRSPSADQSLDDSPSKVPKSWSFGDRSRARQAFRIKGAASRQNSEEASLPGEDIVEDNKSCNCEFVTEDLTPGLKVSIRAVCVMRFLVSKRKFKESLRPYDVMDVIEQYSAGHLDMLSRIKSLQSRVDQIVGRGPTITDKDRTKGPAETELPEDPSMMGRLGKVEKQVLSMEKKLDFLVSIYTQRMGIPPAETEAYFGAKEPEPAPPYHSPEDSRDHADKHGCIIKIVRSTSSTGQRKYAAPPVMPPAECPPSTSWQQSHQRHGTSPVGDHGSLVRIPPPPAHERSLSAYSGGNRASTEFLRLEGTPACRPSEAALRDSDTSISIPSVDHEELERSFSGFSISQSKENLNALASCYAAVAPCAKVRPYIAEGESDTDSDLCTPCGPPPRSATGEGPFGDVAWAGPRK
# KCNQ2 enhance baseline: recorded beside KCNQ2 enhance, whose call it bears; B-score; compound at 10 µM; measured here: initial fluorescence intensity artifact check;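 brightness before thallium and not channel activity; 0 = typical well and far values either way flag optical interference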
# * marks the source's active call; other numbers are inactive results. The list is partial (hit frequency here may not be typical).
# Start of the data: the first 5 records, to show the layout:
KCNQ2 enhance,KCNQ2 enhance baseline,SMILES
1.1,1.9,COc1ccc(CCN2C(=O)CC(NCCc3ccc(S(N)(=O)=O)cc3)C2=O)cc1OC (stereo unspecified)
0.33,1.7,CC(C)C[C@H](NC(=O)C1CC(=O)N(c2ccc3c(c2)OCO3)C1)C(=O)NCc1ccco1 (stereo partly specified)
1.2,-0.42,CCOC(=O)c1cc(C)n(-n2cnnc2)c1C
1.7,0.93,COCCCNC(=O)CCc1nnc(Cc2ccc(-c3ccccc3)cc2)o1
2,0.09,COCCCNc1nc2c(c(=O)n(Cc3ccc(Cl)cc3)c(=O)n2C)n1C

# All compounds of this part, from the start:
KCNQ2 enhance,KCNQ2 enhance baseline,SMILES
1.1,1.9,COc1ccc(CCN2C(=O)CC(NCCc3ccc(S(N)(=O)=O)cc3)C2=O)cc1OC (stereo unspecified)
0.33,1.7,CC(C)C[C@H](NC(=O)C1CC(=O)N(c2ccc3c(c2)OCO3)C1)C(=O)NCc1ccco1 (stereo partly specified)
1.2,-0.42,CCOC(=O)c1cc(C)n(-n2cnnc2)c1C
1.7,0.93,COCCCNC(=O)CCc1nnc(Cc2ccc(-c3ccccc3)cc2)o1
2,0.09,COCCCNc1nc2c(c(=O)n(Cc3ccc(Cl)cc3)c(=O)n2C)n1C
0.22,0,COc1ccc(Cc2nnc(NC(=O)c3ccc(C)cc3)s2)cc1OC
0.38,0.82,O=C(COC(=O)c1cccs1)NCc1cccs1
3,-1.3,COc1ccc(CCC(=O)NCc2ccc3c(c2)OCO3)cc1
0.06,-2.2,COC(CNS(=O)(=O)c1ccc(S(=O)(=O)NC2CC2)cc1)OC
0.96,-2.2,CC(=O)C[C@H]1c2cc(C(F)(F)F)ccc2S(=O)(=O)N1C1CCCC1
1.2,-0.01,O=C(N/N=C/c1ccc([N+](=O)[O-])o1)C(O)c1ccccc1 (stereo unspecified)
1.4,1.1,OC(CCCN1CCCCC1)(c1ccccc1)c1ccccc1
1.3,0.92,O=C(c1ccc(Br)o1)N1CCN(c2ncccn2)CC1
0.37,-0.73,O=C(CSc1ncn[nH]1)Nc1ccc(OCc2ccccc2)cc1
0.06,0.4,COc1cccc(S(=O)(=O)NCC(=O)Nc2ccc(C(C)(C)C)cc2)c1
2,2.9,CCOc1ccc(N2CC(C(=O)NC(C)C)CC2=O)cc1 (stereo unspecified)
0.27,1.3,CCOc1ccc(NC(=O)Cn2c(=O)n(CCCC(=O)NC3CCN(Cc4ccccc4)CC3)c(=O)c3ccccc32)cc1
1,0.82,CCn1cc(/C=C(\NC(=O)c2ccccc2OC)C(=O)N2CCN(C)CC2)c2ccccc21
1.1,0.18,Cc1ccc(OCCOc2cccc(/C=N/NC(N)=O)c2)cc1
1.3,-0.01,CC(C)CNC(=O)COC(=O)CCC(=O)c1cccs1
0.56,1.3,O=C(Nc1ccccc1)c1ccccc1OCc1ccc(S(=O)(=O)N2CCOCC2)cc1
1.7,-2.4,CCN(CC)S(=O)(=O)c1ccc(C(=O)OCC(=O)NC2CCCC2)cc1
1.3,-1.3,C=CCNC(=S)Nc1cccc([N+](=O)[O-])c1
2.4,-0.07,COc1ccc(C(=O)NNC(=O)Nc2ccc(Cl)cc2)cc1
2.7,0.45,CCCNC(=O)N(C)c1nncnc1C(=O)NC
0.64,0.02,COC(=O)C(C)(C)NC(=O)c1cccs1
0.17,-1.9,CCc1n[nH]c(=S)n1/N=C/c1cc(OC)cc([N+](=O)[O-])c1O
0.11,-0.03,CC(Sc1nc(-c2ccccc2)cc(C(F)(F)F)n1)C(=O)Nc1ccc2c(c1)OCO2 (stereo unspecified)
0.03,0.01,COCCNC(=O)C(=O)N/N=C/c1cccs1
0.9,-0.47,Cc1ccc(OC(=O)c2ccncc2)c(C)c1
0.81,-1.1,O=C(NC12CC3CC(CC(C3)C1)C2)c1ccc([N+](=O)[O-])o1
1.4,0,COc1ccc(-n2c(C)cc(C)c(C(C)=O)c2=S)cc1
0.82,-0.2,O=C(CN1C(=O)NC2(CCc3ccccc3C2)C1=O)NCC(F)(F)F (stereo unspecified)
0.03,-1.4,O=C(O)CNC(=O)c1ccccc1Br
1.9,-2,O=C(CC(=O)c1ccccc1)Nc1ccc(Cl)cc1
1.8,0.26,COC(=O)C1=C(C)NC(=O)C1(NC(=O)CN1CCCC1=O)C(F)(F)F (stereo unspecified)
1.3,0.24,COc1cccc(N2C(N)=NC(N)=NC2(C)C)c1
0.49,0.13,CCCNC(=O)N1CCCC(C(N)=O)C1 (stereo unspecified)
0.49,-0.29,Cc1ccc(-n2ncc3c2CC(C)(C)CC3NC(=O)CCc2ccc(=O)[nH]n2)cc1 (stereo unspecified)
0.47,1.7,COc1cccc(CNC(=O)CSc2nnc3c(n2)[nH]c2ccc(OC)cc23)c1
0.48,-0.28,Cc1ccc(NC(=O)c2cc(-c3ccccc3O)n[nH]2)cc1Cl
1.8,-0.36,CCC(CC)C(=O)Nc1ccc(C)c(O)c1
1.1,0.4,C/C=C(\C)C(=O)NCCN1C2=NC[C@H](Cc3ccc(O)cc3)N2C[C@@H]1Cc1ccc(OC)cc1
0.67,-1.1,Cn1cc(/C=C(\C#N)C(=O)Nc2cccc([N+](=O)[O-])c2)c2ccccc21
0.58,-1.4,O=C(NCc1ccco1)c1nn2c(C(F)(F)F)cc(-c3cccs3)nc2c1Cl
0.48,-0.02,COc1ccc(NC(=O)CSc2nc3ccccc3c(=O)n2C)cc1
0.94,2.1,CN(C)c1oc(/C=C/c2ccccc2)nc1C#N
0.65,-0.37,O=[N+]([O-])c1ccccc1/C=C/CN1CCCCC1
0.5,-1.8,CNC(=S)N1N=C(c2cccs2)CC1c1ccc(OC)cc1 (stereo unspecified)
0.88,-0.06,NC(=O)c1cc2cc(Br)ccc2oc1=NCc1ccccc1
0.1,-0.13,CCNC(=S)N(Cc1cccs1)Cc1cc2cc(OCC)ccc2[nH]c1=O
0.5,0.04,CN1CCN(S(=O)(=O)c2ccc(N3CCN(C(c4ccccc4)c4ccccc4)CC3)nc2)CC1
0.32,2.2,CCN(C(=O)CSc1nnc(Cc2ccccc2F)n1N)C1CCS(=O)(=O)C1 (stereo unspecified)
0.42,0.22,CCOC(=O)C1CCCN(S(=O)(=O)CCNC(=O)c2ccc(F)cc2)C1 (stereo unspecified)
3.6,-1.2,CCCSc1nc2sc3c(c2c(=O)[nH]1)CC(C)CC3 (stereo unspecified)
1,-0.18,Cc1c(NC(=O)N(C)C)c(=O)n(-c2ccccc2)n1C
0.61,-0.37,CN1C(=O)CC(N2CCC(C(N)=O)CC2)C1=O (stereo unspecified)
0.54,-0.73,CCOc1ccc(CN2CCNC(=O)C2CC(=O)O)cc1 (stereo unspecified)
0.57,0.46,CCNC(=S)N(Cc1cc2cc(C)cc(C)c2[nH]c1=O)C1CCCC1
0.01,-0.32,CCOc1ccccc1C(=O)Nc1ccc2c(c1)C(=O)NC2=O

# Later entries
KCNQ2 enhance,KCNQ2 enhance baseline,SMILES
1.2,0.09,CC(CCc1ccccc1)NCC(O)COc1ccccc1 (stereo unspecified)
1.1,0,O=C(NCCNC(=O)c1cc(OCC(F)(F)F)ccc1OCC(F)(F)F)Nc1ccccc1
0.28,0.28,CCOc1ccccc1N(CC(=O)N1CCCCCC1)S(C)(=O)=O
0.95,-2.7,O=c1[nH]ncc2c3ccccc3n(Cc3ccccc3F)c12
0.54,1.2,O=C(CSc1nnc(NC(=O)C2CC(=O)N(c3ccc(F)cc3)C2)s1)NCc1ccco1 (stereo unspecified)
0.42,-2,c1ccc(-c2nc(-c3ccco3)cs2)nc1
0.35,-1.1,CCOc1ccc(NS(=O)(=O)c2ccc(OC)c(C)c2)cc1
0.07,-2.2,CC(C)Cc1nc(Nc2ccc(S(=O)(=O)N3CCCC3)cc2)c2nnn(Cc3ccccc3)c2n1
3.4,0.34,CN(CCCNC(=O)CCCOc1cc(=O)n(C)c2ccccc12)Cc1ccccc1
0.01,1,O=C(O)c1ccc2c(c1)C1C=CCC1C(c1cc3c(cc1Br)OCO3)N2 (stereo unspecified)
0.86,-0.03,Cc1cc(C)cc(OCC(=O)Nc2ccc(N3CCN(S(C)(=O)=O)CC3)cc2)c1
0.5,-0.03,Cc1ccc(CNC(=O)c2cc(COc3c(F)cccc3F)on2)s1

# At a glance, part of the list above.
KCNQ2 enhance,KCNQ2 enhance baseline,SMILES
0.01,1,O=C(O)c1ccc2c(c1)C1C=CCC1C(c1cc3c(cc1Br)OCO3)N2 (stereo unspecified)
0.86,-0.03,Cc1cc(C)cc(OCC(=O)Nc2ccc(N3CCN(S(C)(=O)=O)CC3)cc2)c1
0.5,-0.03,Cc1ccc(CNC(=O)c2cc(COc3c(F)cccc3F)on2)s1

# Later entries.
KCNQ2 enhance,KCNQ2 enhance baseline,SMILES
1.2,-0.21,CCOc1cc(/C=C2/C(=N)N3C(=NC2=O)SN=C3S(C)(=O)=O)ccc1OC(=O)c1ccco1
0.07,0.08,CCN(CC)S(=O)(=O)c1ccc(C(=O)C(C#N)c2ccccn2)cc1 (stereo unspecified)
1.2,2.4,O=S(=O)(c1cccc(-c2nnco2)c1)N1CCOCC1
0.33,-0.89,CC1(C)Cc2c(C#N)c(NCCN3CCOCC3)nc(-c3ccccc3)c2CO1
1,0.65,Cc1cc(C(=O)Nc2cccnc2)on1
2.6,-2.2,COc1cccc(N2CCN(C(=O)C3CCCN(S(=O)(=O)c4cnc[nH]4)C3)CC2)c1 (stereo unspecified)
0.03,0.57,COCCN(C(=O)Cc1cccs1)c1nnc(-c2ccncc2)s1
1.1,0,Cc1cc(C(=O)NNC(=O)c2ccc(Cl)cc2Cl)c(C)o1
1.6,0.01,CC(C)NC(=S)NC(=O)c1ccc(-c2ccccc2)cc1
0.67,0.84,CCC(C)[C@H](NC(=O)N1CCCC1)C(=O)OC (stereo partly specified)
0.01,-2,O=C(CSc1cccs1)NCCc1ccccc1
0.36,0.44,CN(C)N=Nc1ccc(S(=O)(=O)NC(=O)Cc2ccccc2)cc1

# Profiles, looked up by structure.
# `CCOC(=O)c1cc(C)n(-n2cnnc2)c1C` is listed as KCNQ2 enhance: 1.2; KCNQ2 enhance baseline: -0.42
# `CC(C)Cc1nc(Nc2ccc(S(=O)(=O)N3CCCC3)cc2)c2nnn(Cc3ccccc3)c2n1` is listed as KCNQ2 enhance: 0.07; KCNQ2 enhance baseline: -2.2
# `C=CCNC(=S)Nc1cccc([N+](=O)[O-])c1` is listed as KCNQ2 enhance: 1.3; KCNQ2 enhance baseline: -1.3

# The list continues.
KCNQ2 enhance,KCNQ2 enhance baseline,SMILES
0.03,-1.8,CCCCNC(=S)N(CCN(CC)CC)Cc1cc2cc3c(cc2[nH]c1=O)OCCO3
0.74,-0.04,CCOc1cccc(N2C(=O)CC(n3cnc4ccccc43)C2=O)c1 (stereo unspecified)
0.02,-0.21,Clc1ccc(Cn2cccc2C2=NCCO2)cc1
0.02,0.36,COc1cc(SC)ccc1C(=O)OCC(=O)NC(=O)NC(C)C
0.03,-0.43,O=C(O)c1cccc(NC(=S)N/N=C/c2cccnc2)c1
0.39,-0.18,Cc1ccc(S(=O)(=O)N2CCOCC2)cc1NC(=O)CSc1nnnn1C
1.9,-0.19,Cc1cc(=O)[nH]c(N/N=C/c2ccc(-c3ccc([N+](=O)[O-])cc3)o2)n1
0.08,-0.2,N#CC1=C(N)OC2=C(C(=O)CC(c3ccccc3)C2)C1c1ccc2c(c1)OCO2 (stereo unspecified)
1.8,0.02,O=C1NC(=Nc2ccccc2Br)SC1(CO)CO
0.6,-0.67,CC(=O)N1CCC(N(CCN2CCOCC2)C(=S)Nc2ccc(C)cc2)CC1
2.2,-0.64,COc1cccc(CN2C(=O)CCC2(C)C(=O)NC2CCCC2)c1 (stereo unspecified)
0.02,0.81,CCOc1ccc(C(=O)OCCCN(C)C)cc1
0.04,0.01,O=C(CN1C(=O)c2cccc3cccc1c23)Nc1cccnc1
0.79,-0.26,CCN(C(C)=O)c1nc(CCl)cs1
0.64,-1.9,O=C(CSC(=S)N1CCCC1)Nc1ncc(Cl)cc1Cl
1.6,-0.14,Cc1ccc(-c2csc3ncnc(SCC(N)=O)c23)cc1
0.65,0.6,CC(=O)c1cc2c(cc1NC(=O)CSc1nc3ccccc3[nH]1)OCO2
0.42,-1.3,O=c1c2ccccc2nc(SCc2ccc([N+](=O)[O-])cc2)n1CCCO
0.47,-1,CCOc1ccc(NC(=O)c2ccccc2NC(=O)CN2CCN(C(C)=O)CC2)cc1
0.01,-1.1,CC(=O)OC(C)C[N+](C)(C)C (stereo unspecified)
0.48,0.36,COc1ccc(OCCOc2ccccc2[N+](=O)[O-])cc1
1.7,0.75,CCOC(=O)Nc1cc2c(C)cc(=O)oc2cc1C
0.52,0.28,N=C1c2ccccc2CN1NC(=O)c1cccc(S(=O)(=O)N2CCOCC2)c1
0.69,0.24,Cc1ccc(/C(O)=C2\C(=O)C(=O)N(C)C2c2ccc([N+](=O)[O-])cc2)cc1 (stereo unspecified)
1.1,-1.4,C#Cc1ccc([C@@H]2C=C(C(=O)N3CCOCC3)O[C@H](OCC)[C@H]2CCCO)cc1
0.78,-1.5,CC(C)(C)c1ccc(OCCCC(=O)N2CCOCC2)cc1
0.71,0.91,CCOc1ccc(NS(=O)(=O)c2ccc(C(=O)NCC3(N(C)C)CCCCC3)cc2)cc1
0.99,-0.07,Cc1ccc(-c2nnc(SCC(=O)Nc3ccc(S(=O)(=O)N4CCCCCC4)cc3)o2)cc1
0.75,0.71,CC(C)C12CN3CC(C(C)C)(CN(C1)C31C(=O)Nc3ccccc31)C2=O (stereo unspecified)
1.1,-0.17,O=C(O)CCCCNCc1ccccc1
0.43,-0.16,CCOC(=O)n1c(=O)n(Cc2ccc(Cl)c(Cl)c2)c2ccccc21
0.4,-1.1,CCOC(=O)CC1C(=O)NCCN1S(=O)(=O)c1ccc(OC)cc1 (stereo unspecified)
0.16,1.1,CCc1ccc(NC(=O)c2[nH]c(C)c(C(C)=O)c2C)cc1

# Bioassay records: PubChem BioAssay, Johns Hopkins Ion Channel Center
